Cruzain inh noDet: qHTS Assay for Promiscuous and Specific Inhibitors of Cruzain (without detergent). purified cruzain, Z-FR-AMC fluorescence, no detergent. Potency, µM, inactives show max response, negative = inhibition, hits mostly inhibitors. 200,000 compounds, 2.3% hits. AID 1476, 2009; active = well fitted curve in the direction sought with a large enough effect; inconclusive = small, poorly fitted or top-dose-only effect, or another doubt; inactive = no such curve, though single readings can be large; an effect the other way counts as inactive or inconclusive;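 note: plate controls were enzyme without inhibitor for no effect and buffer without enzyme for full effect; nearly all actives have a fitted effect of over 40% in size; top concentration of the series not given in the record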
Target sequence (P25779 123-467 limits assumed): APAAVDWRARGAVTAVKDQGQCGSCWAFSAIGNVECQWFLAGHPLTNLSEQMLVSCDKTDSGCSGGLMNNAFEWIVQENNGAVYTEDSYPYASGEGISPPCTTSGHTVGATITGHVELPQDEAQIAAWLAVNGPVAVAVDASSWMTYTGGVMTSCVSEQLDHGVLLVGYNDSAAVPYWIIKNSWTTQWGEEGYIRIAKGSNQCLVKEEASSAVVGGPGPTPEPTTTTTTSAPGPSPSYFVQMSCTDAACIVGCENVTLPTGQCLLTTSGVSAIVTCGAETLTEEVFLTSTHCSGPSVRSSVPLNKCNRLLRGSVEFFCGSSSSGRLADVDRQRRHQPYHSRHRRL
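Detergent-free condition (0.00005% Triton X-100) in acetate buffer pH 5.5 with DTT. 1.5 nM enzyme and compound were pre-mixed 15 min, then 2 uM Z-FR-AMC substrate added; reaction progress from fluorescence change between first and third reads (60 s).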
SARS PLP yeast: qHTS of Yeast-based Assay for SARS-CoV PLP; S. cerevisiae expressing SARS-CoV PLpro, growth rescue; control for the full effect not named in the record; Potency, µM (series often up to 32.9 µM), inactives show top-dose activity, positive = growth rescue; 330,000 compounds, 0.19% hits; note: 0% is about no effect; nearly all actives have a fitted effect of over 55% in size; growth read by luminescence after 48 h
LASV entry inh: qHTS for Inhibitors of binding or entry into cells for Lassa Virus. Lassa virus pseudotype entry inhibition, cell reporter; control for the full effect not named in the record. Potency, µM (series often up to 37.9 µM), inactives show at the highest dose activity change, negative = inhibition, most hits filed as inhibitors. 300,000 compounds, 1.2% hits; active means well fitted inhibition curve with a large enough effect; inconclusive means small, poorly fitted or top-dose-only effect, or effect the other way; inactive means flat fitted curve, though single readings scatter; tested in HEK293 cells; note: % is set by controls: 0 for no effect and ±100 for the full control effect; nearly all actives have a fitted effect of over 50% in size; luciferase read-out
StopGo reporter: High Throughput Screening for Foot and Mouth Disease Virus Antivirals; human cells with a luciferase reporter of 2A StopGo recoding; control for the full effect not named in the record; Potency, µM (top dose mostly 57.9 µM), for inactives: at the highest dose signal change, negative = less light; 410,000 compounds, 1.2% hits; active = well fitted falling curve with a large enough effect; inconclusive = small, poorly fitted or top-dose-only effect; inactive = no such curve, though single readings can be large or run the other way; tested in HEK293T cells; note: % is set by controls: 0 for no effect and ±100 for the full control effect; nearly all actives have a fitted effect of over 45% in size; luciferase light after 4 h
MARV entry inh: qHTS for inhibitors of binding or entry into cells for Marburg Virus | Marburg virus pseudotyped entry inhibition, cell reporter; control for the full effect not named in the record; about a third of the inactives were read at about 46 µM | Potency, µM (doses to about 37.8 µM), inactives show at the top dose activity change, negative = inhibition, usual class: inhibitors | 300,000 compounds, 1.8% hits; active = well fitted inhibition curve with a large enough effect; inconclusive = small, poorly fitted or top-dose-only effect, or effect the other way; inactive = flat fitted curve, though single readings scatter; tested in HEK293 cells; about a fifth of its hits are not listed in these tables; note: % is set by controls: 0 for no effect and ±100 for the full control effect; luciferase read-out
Cruzain Triton: qHTS Assay for Promiscuous and Specific Inhibitors of Cruzain (with detergent) | purified cruzain, Z-FR-AMC fluorescence, 0.01% Triton | Potency, µM, for the others: max response, negative = inhibition, actives largely listed as inhibitors | 200,000 compounds, 0.43% hits; active = well fitted curve in the direction sought with a large enough effect; inconclusive = small, poorly fitted or top-dose-only effect, or another doubt; inactive = no such curve, though single readings can be large; an effect the other way counts as inactive or inconclusive;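 note: plate controls were neutral wells for no effect and buffer without enzyme for full effect; nearly all actives have a fitted effect of over 40% in size; top concentration of the series not given in the record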
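In this qHTS format, compounds are incubated with 1.5 nM cruzain for 15 min at room temperature before 2 uM Z-FR-AMC is added. Release of AMC is followed at 360/450 nm, and progress is taken as the 60 s fluorescence difference.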
RE007 growth inh: qHTS Assay for Inhibitors of the HIV-1 protein Vpr. S. pombe RE007 Vpr strain, BacTiter-Glo ATP luminescence, 24 h; control for the full effect not named in the record. Potency, µM (top dose mostly 92.2 µM), inactives show at the top dose activity change, negative = less growth. 360,000 compounds, 0.21% hits. AID 651644, 2012; active = well fitted falling curve with a large enough effect; inconclusive = small, poorly fitted or top-dose-only effect; inactive = no such curve, though single readings can be large or run the other way;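 note: % is set by controls: 0 for no effect and ±100 for the full control effect; nearly all actives have a fitted effect of over 50% in size; the assay follows cell death caused by Vpr and the record does not say whether a fall means rescue or toxicity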
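Fission yeast strain RE007, carrying one chromosomally integrated HIV-1 vpr copy, was seeded at OD 0.01 in PMG+AL medium with 23 nL pinned compound. After 24 h at 30 °C and 99% humidity, viability was read by BacTiter-Glo luminescence.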
NS1 inh: qHTS Assay for Inhibitors of Influenza NS1 Protein Function; AID 2326, 2010; Potency, µM (titrated, usually from 46.1 µM), without a hit: at the highest dose activity, positive = more growth; 270,000 compounds, 0.4% hits; S. cerevisiae slowed by influenza A NS1, growth recovery by OD600; note: actives are rising curves; nearly all actives have a fitted effect of over 50% in size
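Growth recovery, yeast-based: influenza A NS1 expressed in S. cerevisiae causes slow growth, and suppressors are detected by OD600. The parent strain without NS1 is used as positive control.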
The depositor's hits bear a star; ? = inconclusive; . = no result given; & = joins results of further samples; [ ] = remark or other dose. Unless noted, calls come from the whole dose curve; as a rule, active means well fitted rising curve with a large enough effect; inconclusive means small, poorly fitted or top-dose-only effect; inactive means no such curve, though single readings can be large or run the other way. Potency is the fitted concentration of half-maximal effect.

SMILES	Cruzain inh noDet	SARS PLP yeast	LASV entry inh	StopGo reporter	MARV entry inh	Cruzain Triton	RE007 growth inh	NS1 inh
CCOC(=O)c1ccc2[nH]c3c(c2c1)CCCC3O (stereo unspecified)	.	0%	-23%	41%[activator]	23%[46.1 µM]	.	-6%	-5%
Cc1ccccc1COC(=O)CN1C(=O)NC2(CCCC2)C1=O	.	7%	-3%	25%	5%[46.1 µM]	.	-4%	.
O=C(COc1cccc2cccnc12)NCC(F)(F)F	7%	-7%	-2%	-7%	-13%[46.1 µM]	-3.1%	-12%	6%
CN1CCN(c2ccc(Cl)cc2NC(=O)c2ccc([N+](=O)[O-])cc2)CC1	.	0%	.	-13%	.	.	5%	8%
COc1ccccc1COCC(O)CN(Cc1ccco1)Cc1ccccc1O (stereo unspecified)	5%	-1%	?	20%	?	-1.4%	-12%	6%
Cc1cc2oc(=O)cc(CN3CCC(C)CC3)c2cc1C	.	0%	.	45%[activator]	.	.	1%	0%
COC(=O)c1c(C)nc2ccccc2c1C(=O)O	-11%	6%	0%	-13%	-13%	14%	1%	?
Cc1ccc(CN2CCN(Cc3ccc(OCCO)cc3)CC2CCO)o1 (stereo unspecified)	.	1%	3%[46.1 µM]	-20%	13%[46.1 µM]	.	2%	11%
COc1ccc(-c2cn3cccnc3n2)cc1NC(=O)c1ccccc1C(F)(F)F	11%	.	22%[46.1 µM]	12%	.	-0.3%	.	.
OCCn1c(Cl)nc2ccccc21	-11%	14%	0%	12%	2%	0.5%	1%	6%
O/N=C(\CN1CCCCC1)c1ccccc1	.	-2%	7%	-1%	?	.	-8%	2%
COc1ccc(NC(=O)CCc2nc(C3=CCN(Cc4cccc(C)c4)CC3)no2)c(OC)c1	14%	.	-16%[46.1 µM]	-4%	.	1.6%	.	.
CC(C)(C)C(=O)CSc1nc2c(c(-c3cccs3)c1C#N)CCC2	25µM*	4%	-2%	13%	-1%	-4.0%	-12%	4%
CN(C)S(=O)(=O)c1ccc(NC(=O)C2CC(=O)N(Cc3ccccc3)C2)cc1 (stereo unspecified)	.	-2%	?	-10%	0%[46.1 µM]	.	5%	.
Cc1nc(SCC(=O)NCCc2ccccc2)n[nH]1	-10%	0%	11%	2%	9%	-1.0%	-22%	-7%
O=C(/C=C/c1ccc(Br)cc1)NC(=S)N1CCOCC1	.	1%	9%[46.1 µM]	33%[activator]	3%[46.1 µM]	.	-18%	-1%
Cc1ccc(C(=O)N2CCN(c3ccc(NC(=O)c4cc(C)cc(C)c4)cc3)CC2)cc1	.	0%	-1%	-22%	-10%	.	2%	19%
COc1ccc(NC(=O)CCC(=O)OCc2ccc(Br)cc2)cc1	-6%	-17%	7%	-24%	?	-5.3%	.	-8%
CCc1ccccc1NC(=O)C1C(c2ccccc2)C1(Cl)Cl (stereo unspecified)	-6%	-12%	?	0%	?	-5.0%	-6%	-31%
CC(C)=CCC/C(C)=C/CC/C(C)=N/O	14%	2%	-8%	-14%	1%	0.3%	8%	17%
O=C(Nc1ccc(Cl)c(Cl)c1)O/N=C/c1ccncc1	21%	-82%	4%	-24%	?	2.3%	-2%	-36%
S=C(NCc1ccccc1)N1CCN(c2ccccc2)CC1	.	0%	2%[46.1 µM]	6%	24%[46.1 µM]	.	7%	.
CN1C(=O)c2ccc(S(=O)(=O)c3ccc(C(=O)O)cc3)cc2C1=O	-7%	9%	12%	.	19%	-2.5%	6%	1%
CC(C)CC(NC(=O)c1ccccc1)C(=O)OCC(=O)Nc1ccc(S(N)(=O)=O)cc1 (stereo unspecified)	.	-1%	.	-16%	.	.	10%	-3%
CN(C)C(CNc1ccc(C(N)=O)cc1[N+](=O)[O-])c1ccccc1 (stereo unspecified)	.	1%	-1%[46.1 µM]	2%	13%[46.1 µM]	.	-26%	-2%

(more compounds)
SMILES	Cruzain inh noDet	SARS PLP yeast	LASV entry inh	StopGo reporter	MARV entry inh	Cruzain Triton	RE007 growth inh	NS1 inh
CCc1c(C#N)sc(C(N)=O)c1CC	.	1%	23%	-19%	20%[46.1 µM]	.	-3%	0%
CC(=O)Nc1ccc(S(=O)(=O)NCCN2CCOCC2)cc1	13%	1%	?	3%	?	3.5%	1%	-16%
O=C(NCc1ccncc1)C(=O)NCC1OCCCN1S(=O)(=O)c1cc(F)ccc1F (stereo unspecified)	.	3%	21%	-15%	1%	.	3%	11%
Cc1onc(-c2ccccc2)c1C(=O)N1CCC(CO)(Cc2ccccc2)CC1	.	17%	-30%[46.1 µM]	-5%	18%[46.1 µM]	.	-9%	-13%
Cc1ccc(-n2nc3c(N4CCC(C(=O)N5CCC(C)CC5)CC4)nnc(C)c3c2C)cc1	-7%	.	8%[46.1 µM]	-5%	.	-1.2%	.	.
CCN(CC)c1ccc(-n2cc3c(=O)n(C)c(=O)n(C)c3c2)cc1	-7%	4%	?	6%	?	-6.1%	-16%	-35%
CC1(C)CC(NC(=O)C2CCCCC2)CC(C)(C)N1	.	-3%	25%	-16%	24%	.	11%	1%
Cc1ccccc1NC(=O)C1Cc2ccccc2C(=O)O1 (stereo unspecified)	-2%	4%	3%	36%[activator]	3%	-1.5%	-1%	6%
Clc1cccc(Cl)c1CNC1CCCC1	?	14%	?	-9%	7%	-4.0%	12%	2%
O=C1CN=C(c2ccccc2Cl)c2cc(Br)ccc2N1	.	.	?	-20%	?	.	0%	.
COc1ccc(OC)c(NC(=O)Cn2cc(C#N)c3cc(Br)ccc32)c1	-12%	-5%	-11%	?	-26%	-6.6%	-19%	0%
Cc1cc2c(c(C)c1Br)C(c1ccc3c(c1)OCO3)CC(=O)O2 (stereo unspecified)	?	-58%	.	-23%	.	-0.7%	-1%	.
COc1cc(/C=C/C(=O)OCC(=O)NCc2ccco2)ccc1OC(F)F	.	-4%	?	-20%	1%	.	-10%	5%
Cc1ccccc1-c1ocnc1C(=O)Nc1ccccc1NC(=O)c1ccccn1	.	-4%	?	-1%	?	.	-18%	-66%
COc1cc([N+](=O)[O-])ccc1NC(=S)N1CCN(c2ccccn2)CC1	.	-9%	-24%	13%	3%	.	?	.
COc1ccc(-n2c(SCC(N)=O)nc3sc4c(c3c2=O)CCN(C)C4)cc1	-4%	1%	-8%	-10%	10%	-4.2%	7%	24%
O=[N+]([O-])c1cccc(C2NCC(c3ccccc3Cl)c3c2[nH]c2ccccc32)c1 (stereo unspecified)	.	-19%	14µM*	0%	?	.	28%	.
CCc1cccc(NC(=O)CC2SC(N3CCCC3)=NC2=O)c1 (stereo unspecified)	.	3%	-24%	2%	-13%	.	7%	.
OCCCNc1ncnc2oc(-c3ccccc3)c(-c3ccccc3)c12	.	-2%	.	-28%	.	.	4%	0%
N#Cc1nc(COc2ccccc2)oc1N1CCC(Cc2ccccc2)CC1	-7%	-2%	?	-6%	?	1.8%	0%	9%
Cc1nn(CCc2nn[nH]n2)c2nc(-c3ccc(C4CCCCC4)cc3)cc(C(F)(F)F)c12	.	-1%	?	?	-15%[46.1 µM]	.	-6%	.
CN(C)C(=O)CCC(=O)N1CCCCC1C(=O)Nc1ccc(Oc2ccccc2F)cc1 (stereo unspecified)	.	-1%	19%[46.1 µM]	-13%	17%[46.1 µM]	.	-2%	-12%
Cc1cccc(N2CCN(C(=O)C3CCN(c4nnc(-n5cccc5)s4)CC3)CC2C)c1 (stereo unspecified)	4%	-14%	-17%	16µM*	22%&22%	-2.9%	-11%	-76%
Cc1ccc(S(=O)(=O)N2CCCC(C(=O)NCc3cccnc3)C2)cc1Cl (stereo unspecified)	10%	-17%	-6%	-29%	-20%	2.3%	-15%	-5%
Cc1onc(-c2ccccc2Cl)c1C(=O)OCC(=O)Nc1cccc(S(=O)(=O)N2CCOCC2)c1	.	0%	?	?	?	.	16%	21%

The list goes on.
SMILES	Cruzain inh noDet	SARS PLP yeast	LASV entry inh	StopGo reporter	MARV entry inh	Cruzain Triton	RE007 growth inh	NS1 inh
COc1ccc(C(=O)Nc2ccc(S(=O)(=O)N(C)c3ccccc3)cc2)cc1	.	.	?	?	?	.	3%	.
CCCC(CCC(=O)Nc1nccs1)C(=O)O (stereo unspecified)	.	0%	9%	-10%	?	.	-17%	5%
O=C(O)c1cccc(S(=O)(=O)Nc2ccc3c(c2)OCO3)c1	-9%	4%	5%	11%	25%	4.0%	-16%	2%
CC(=O)N1CCCC1C(=O)O (stereo unspecified)	2%	.	.	-2%&12%	.	0.7%	-3%[18.4 µM]	.
CCOC(=O)COc1cc(Br)c(C2NC(=O)NC(C)=C2C(C)=O)cc1OCC (stereo unspecified)	6%	0%[6.58 µM]	-23%[14.3 µM]	-8%	-3%	0.7%	-4%	6%
Cc1ccc(C)c(NC(=O)c2cc3c([nH]c4ccccc43)c(C)n2)c1	7.9µM*	2%	2%	4%	2%	7.8%	-5%	-11%
CCOc1cnc(-c2c(-c3c(F)cccc3Cl)noc2C)o1	.	0%	11%	-4%	13%	.	6%	.
COc1cc(C2C(C#N)=C(N)N(N(C)C)C3=C2C(=O)CC(C)(C)C3)cc(OC)c1OC (stereo unspecified)	.	1%	-15%[46.1 µM]	-8%	?	.	-2%	3%
O=c1cc(CO)oc(C(Nc2ccccn2)c2ccsc2)c1O (stereo unspecified)	-11%	-1%	.	.	2%	4.2%	.	?
O=S1(=O)CC=C(CSC(=S)NC2CCS(=O)(=O)C2)C1 (stereo unspecified)	.	1%	-6%[46.1 µM]	11µM*	10%[46.1 µM]	.	-12%	2%
Cc1ccc(C2=NN=C(NC(=O)C(F)(F)F)SC2)cc1	.	-2%	-22%	15%	?	.	64%	-5%
NS(=O)(=O)c1ccc(CCNC(=O)CCNC(=O)c2ccco2)cc1	.	4%	10%	38%[activator]	9%[46.1 µM]	.	0%	-7%
Cc1ccc2c(SCC(=O)NCc3ccco3)nc(-c3ccc(F)cc3)nc2c1	-6%	6%	-2%	-19%	9%	1.1%	-3%	-2%
Brc1ccccc1CN1CCC(Cc2ccccc2)CC1	.	8%	-4%	-20%	?	.	-7%	-14%
